Cruzain inh Det: cruzain (T. cruzi) inhibition with detergent; P25779; hit rate 0.43% among 200,000; purified cruzain, Z-FR-AMC fluorescence, 0.01% Triton; Potency, µM, for the others: max response, negative = inhibition, most hits filed as inhibitors; active = well fitted curve in the direction sought with a large enough effect; inconclusive = small, poorly fitted or top-dose-only effect, or another doubt; inactive = no such curve, though single readings can be large; an effect the other way counts as inactive or inconclusive;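 note: plate controls were neutral wells for no effect and buffer without enzyme for full effect; nearly all actives have a fitted effect of over 40% in size; top concentration of the series not given in the record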
Target sequence (P25779 123-467 limits assumed): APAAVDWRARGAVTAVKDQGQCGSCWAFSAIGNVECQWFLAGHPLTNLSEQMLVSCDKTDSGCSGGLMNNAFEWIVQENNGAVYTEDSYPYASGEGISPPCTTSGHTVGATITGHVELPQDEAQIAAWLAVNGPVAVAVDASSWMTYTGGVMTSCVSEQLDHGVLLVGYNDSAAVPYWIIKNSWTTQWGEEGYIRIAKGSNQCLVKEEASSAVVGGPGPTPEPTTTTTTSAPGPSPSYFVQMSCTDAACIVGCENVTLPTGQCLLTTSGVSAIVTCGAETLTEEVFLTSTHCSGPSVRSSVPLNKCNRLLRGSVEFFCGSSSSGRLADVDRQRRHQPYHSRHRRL
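Steps: dispense cruzain (1.5 nM final) in acetate buffer pH 5.5 with DTT and 0.01% Triton X-100; pin-transfer compounds; incubate 15 min RT; add Z-FR-AMC (2 uM final); read fluorescence every 30 s, using the 60 s intensity change.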
NS1 inh: influenza NS1 inhibition. Potency, µM (titrated, usually from 46.1 µM), for inactives: at the top dose activity, positive = more growth. S. cerevisiae slowed by influenza A NS1, growth recovery by OD600. hit rate 0.4% among 270,000. AID 2326; note: actives are rising curves; nearly all actives have a fitted effect of over 50% in size
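Recovery from NS1-induced slow growth read by OD600 in budding yeast switched to galactose assay medium (pH 6.0, -URA) at 1:100 dilution. Compound 23 nl per well; the matching strain lacking NS1 serves as control.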
StopGo reporter: FMDV 2A StopGo reporter, luciferase signal; human cells with a luciferase reporter of 2A StopGo recoding; control for the full effect not named in the record; Potency, µM (top dose mostly 57.9 µM), for inactives: at the top dose signal change, negative = less light; hit rate 1.2% among 410,000; AID 1159524; active = well fitted falling curve with a large enough effect; inconclusive = small, poorly fitted or top-dose-only effect; inactive = no such curve, though single readings can be large or run the other way; tested in HEK293T cells; note: % is set by controls: 0 for no effect and ±100 for the full control effect; nearly all actives have a fitted effect of over 45% in size; luciferase light after 4 h
RE007 growth inh: less growth of the S. pombe RE007 Vpr strain; Potency, µM (titrated, usually from 92.2 µM), inactives show top-dose activity change, negative = less growth; hit rate 0.21% among 360,000; AID 651644; S. pombe RE007 Vpr strain, BacTiter-Glo ATP luminescence, 24 h; control for the full effect not named in the record; active = well fitted falling curve with a large enough effect; inconclusive = small, poorly fitted or top-dose-only effect; inactive = no such curve, though single readings can be large or run the other way;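 note: % is set by controls: 0 for no effect and ±100 for the full control effect; nearly all actives have a fitted effect of over 50% in size; the assay follows cell death caused by Vpr and the record does not say whether a fall means rescue or toxicity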
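Fission yeast RE007 carrying one integrated HIV-1 vpr copy, seeded at OD 0.01 in PMG+AL medium with 23 nL pinned compound. Grown 24 h at 30 degrees; viability read by BacTiter-Glo luminescence after 5 min.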
Cruzain noTriton: inhibitors of Trypanosoma cruzi cruzain without detergent; AID 1476; purified cruzain, Z-FR-AMC fluorescence, no detergent; Potency, µM, for the others: max response, negative = inhibition, hits mostly inhibitors; hit rate 2.3% among 200,000; active = well fitted curve in the direction sought with a large enough effect; inconclusive = small, poorly fitted or top-dose-only effect, or another doubt; inactive = no such curve, though single readings can be large; an effect the other way counts as inactive or inconclusive;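 note: plate controls were enzyme without inhibitor for no effect and buffer without enzyme for full effect; nearly all actives have a fitted effect of over 40% in size; top concentration of the series not given in the record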
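Purified cruzain at 1.5 nM, pre-incubated 15 min with compound at room temperature in 100 mM sodium acetate pH 5.5, 5 mM DTT, 0.00005% Triton X-100. Reaction started with 2 uM Z-FR-AMC; AMC fluorescence increase over 60 s gives rate.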
LASV entry inh: inhibitors of Lassa virus binding or cell entry; Lassa virus pseudotype entry inhibition, cell reporter; control for the full effect not named in the record; Potency, µM (series often up to 37.9 µM), inactives show at the top dose activity change, negative = inhibition, actives largely listed as inhibitors; hit rate 1.2% among 300,000; AID 540256; active means well fitted inhibition curve with a large enough effect; inconclusive means small, poorly fitted or top-dose-only effect, or effect the other way; inactive means flat fitted curve, though single readings scatter; tested in HEK293 cells; note: % is set by controls: 0 for no effect and ±100 for the full control effect; nearly all actives have a fitted effect of over 50% in size; luciferase read-out
SARS PLP yeast: inhibitors of SARS-CoV papain-like protease in yeast; S. cerevisiae expressing SARS-CoV PLpro, growth rescue; control for the full effect not named in the record; Potency, µM (series often up to 32.9 µM), for the others: at the top dose activity, positive = growth rescue; hit rate 0.19% among 330,000; note: 0% is about no effect; nearly all actives have a fitted effect of over 55% in size; growth read by luminescence after 48 h
MARV entry inh: Marburg virus entry inhibition; Marburg virus pseudotyped entry inhibition, cell reporter; control for the full effect not named in the record; about a third of the inactives were read at about 46 µM; Potency, µM (titrated, usually from 37.8 µM), for the others: top-dose activity change, negative = inhibition, usual class: inhibitors; hit rate 1.8% among 300,000; active = well fitted inhibition curve with a large enough effect; inconclusive = small, poorly fitted or top-dose-only effect, or effect the other way; inactive = flat fitted curve, though single readings scatter; tested in HEK293 cells; about a fifth of its hits are not listed in these tables; note: % is set by controls: 0 for no effect and ±100 for the full control effect; luciferase read-out
* marks the source's active call; other numbers are inactive results; & = joins results of further samples; [ ] = remark or other dose. Unless noted, calls come from the whole dose curve; as a rule, active means well fitted rising curve with a large enough effect; inconclusive means small, poorly fitted or top-dose-only effect; inactive means no such curve, though single readings can be large or run the other way. Potency is the fitted concentration of half-maximal effect.

Screening C=CCn1ccc(=NC=C(C#N)C#N)c2ccccc21 returned NS1 inh -0.9%, StopGo reporter -4.7%, RE007 growth inh -9.6%, LASV entry inh -2.7%, SARS PLP yeast 1.2% and MARV entry inh -3.9%[46.1 µM].
COc1ccc(C(=O)OCC(=O)Nc2ccc3[nH]c(=O)[nH]c3c2)c(OC)c1OC was read as StopGo reporter -9.3%, RE007 growth inh 7.4%, LASV entry inh inconclusive, SARS PLP yeast 6.2% and MARV entry inh 15.2%.
Screening O=C(C1CCCN1S(=O)(=O)c1cccc2cccnc12)N1CCc2ccccc21 (stereo not drawn) returned Cruzain inh Det 3.8%, NS1 inh -35.5%, StopGo reporter -15.6%, RE007 growth inh 5.5%, Cruzain noTriton -2.3%, SARS PLP yeast -2.7% and MARV entry inh 0.7%.
`CCC(C(=O)Nc1nc(C)c(C)s1)c1ccccc1` (stereo not drawn) gave NS1 inh -18.5%, StopGo reporter -25.1%, RE007 growth inh -9.4%, LASV entry inh 1.2%, SARS PLP yeast -4.7% and MARV entry inh -17.0%.
Screening O=C1CCCC(O)=C1C(C#Cc1ccccc1)C1=C(O)CCCC1=O returned Cruzain inh Det -5.0%, NS1 inh -75.0%, StopGo reporter -11.1%, RE007 growth inh inconclusive, Cruzain noTriton -0.8%, LASV entry inh -19.5%, SARS PLP yeast 2.4% and MARV entry inh inconclusive.
`O=C(Cc1ccc(F)cc1)Nc1ccc(S(=O)(=O)N2CCCCC2)cc1` gave NS1 inh -6.0%, StopGo reporter -13.8%, RE007 growth inh 0.9%, LASV entry inh inconclusive, SARS PLP yeast -1.5% and MARV entry inh inconclusive.
Screening O=C(N/N=C/c1ccccc1)c1ccc2c(c1)OCO2 returned NS1 inh 4.7%, StopGo reporter -10.6%, RE007 growth inh -8.7% and SARS PLP yeast -1.7%.
Screening Cc1c(Cc2ccccc2)sc(NC(=O)c2ccco2)c1C(N)=O returned Cruzain inh Det -12.7%, NS1 inh -19.7%, StopGo reporter 16.2%, RE007 growth inh -10.7%, Cruzain noTriton -19.8%, LASV entry inh -14.1%, SARS PLP yeast -84.4% and MARV entry inh -0.6%.
`Cc1cccc(OCCC(=O)NNC(=O)Cn2nc(C)cc2C)c1` gave StopGo reporter -0.8%, RE007 growth inh 15.3%, LASV entry inh 25.0%, SARS PLP yeast 1.4% and MARV entry inh 12.3%.
For C=C(C)CSc1nc(-c2ccccc2)cc(-c2ccc(OC)cc2)c1C#N the results were Cruzain inh Det -4.1%, StopGo reporter -14.3%, Cruzain noTriton -28.7%, LASV entry inh -11.1%[46.1 µM] and MARV entry inh -22.4%[46.1 µM].
For C/C(=N\NC(=O)c1ccc(-c2ccccc2)cc1)c1cccc(N)c1 the results were NS1 inh 5.1%, StopGo reporter 13.6%, RE007 growth inh 1.1%, LASV entry inh inconclusive, SARS PLP yeast -2.7% and MARV entry inh 11.1%[46.1 µM].
COC(=O)c1ccc(CN2CCSC2=N)cc1 was read as NS1 inh 1.7%, StopGo reporter -26.6%, RE007 growth inh 24.2% and SARS PLP yeast -0.6%.
`CCOc1ccc(N(CC(=O)NCc2ccc(C)cc2)S(=O)(=O)c2c(C)noc2C)cc1` gave Cruzain inh Det -1.0%, StopGo reporter -6.6%, Cruzain noTriton -5.9%, LASV entry inh 21.7%[46.1 µM] and MARV entry inh 1.6%[46.1 µM].
`N#Cc1ccc(Cn2cc(C(=O)c3ccco3)c3ccccc32)cc1` gave Cruzain inh Det -8.0%, NS1 inh 1.4%, StopGo reporter -21.2%, RE007 growth inh 4.2%, Cruzain noTriton -7.1%, LASV entry inh inconclusive, SARS PLP yeast -23.0% and MARV entry inh inconclusive.
`NC(=O)COC(=O)c1cccc(NS(=O)(=O)/C=C/c2ccccc2)c1` gave Cruzain inh Det 0.3%, NS1 inh -2.0%, StopGo reporter 13.0%, RE007 growth inh 13.1%, Cruzain noTriton -4.8%, LASV entry inh -16.6%, SARS PLP yeast -2.1% and MARV entry inh -20.1%.
Screening CCOc1ccc(NC(=O)C2CCN(S(=O)(=O)c3cccnc3)CC2)cc1 returned Cruzain inh Det 2.0%, NS1 inh 4.0%, RE007 growth inh 13.6%, Cruzain noTriton -5.0%, LASV entry inh -3.0%, SARS PLP yeast 2.7% and MARV entry inh -3.6%.
For O=C(CCCc1ccccc1)N1CCc2ccccc21 the results were Cruzain inh Det 1.7%, NS1 inh -9.9%, RE007 growth inh 14.1%, Cruzain noTriton 0.8%, LASV entry inh inconclusive, SARS PLP yeast -15.8% and MARV entry inh inconclusive.
COCC(C)n1c(SCC(=O)NC2CCCCC2C)nc2ccccc2c1=O (stereo not drawn) was read as StopGo reporter -19.0%, RE007 growth inh 3.7%, LASV entry inh -23.2%, SARS PLP yeast -3.6% and MARV entry inh -28.3%.
`CN(C)S(=O)(=O)N(CC(=O)N1CCN(c2ccccc2)CC1)c1ccccc1` gave NS1 inh -5.2%, StopGo reporter -4.8%, RE007 growth inh -3.9%, LASV entry inh -7.0%, SARS PLP yeast -0.5% and MARV entry inh 5.4%[46.1 µM].
Screening COc1ccc(CCNc2c(N)n(Cc3ccccc3)c(=O)[nH]c2=O)cc1OC returned Cruzain inh Det 1.8%, NS1 inh 3.3%, StopGo reporter -23.6%, RE007 growth inh -3.8%, Cruzain noTriton 5.3%, LASV entry inh 0.1%, SARS PLP yeast -0.1% and MARV entry inh -0.7%&-0.7%.
`O=[N+]([O-])c1ccc(N(CC(O)CN2CCCCC2)S(=O)(=O)c2ccccc2)cc1` (stereo not drawn) gave NS1 inh 2.1%, StopGo reporter -1.1%, RE007 growth inh -0.1%, LASV entry inh -3.1%[46.1 µM], SARS PLP yeast -0.5% and MARV entry inh -13.6%[46.1 µM].
For CCCc1nc(SCC(=O)NCc2ccco2)c2c(=O)n(C)c(=O)n(C)c2n1 the results were Cruzain inh Det -2.0%, NS1 inh 6.2%, StopGo reporter 0.0%, RE007 growth inh -1.7%, Cruzain noTriton inconclusive and SARS PLP yeast 0.2%.
Screening Cc1[nH]c(=O)[nH]c(=O)c1S(=O)(=O)Nc1ccc(Br)cc1F returned NS1 inh -1.1%, StopGo reporter -23.3%, RE007 growth inh 2.6% and SARS PLP yeast -1.6%.
`NC(=O)C[C@@H]1NC(=O)[C@H](CCC(=O)O)NC(=O)c2cc([N+](=O)[O-])cc(I)c2OCC[C@@H](C(N)=O)NC1=O` gave Cruzain inh Det -5.9%, NS1 inh 13.1%, StopGo reporter -12.1%, RE007 growth inh 4.5%, Cruzain noTriton 2.9%, LASV entry inh 10.6%, SARS PLP yeast 5.8% and MARV entry inh 3.4%.
CCOC(=O)C(=CNNc1ccsc1C(=O)OC)C(=O)OCC was read as NS1 inh -1.0%, StopGo reporter -23.0%, RE007 growth inh -1.0%, LASV entry inh -11.5%[46.1 µM], SARS PLP yeast -0.4% and MARV entry inh inconclusive.
`CC(C)Cc1ccc(S(=O)(=O)Nc2ccccn2)cc1` gave NS1 inh -68.8%, StopGo reporter 73.4%[activator], RE007 growth inh 13.8% and SARS PLP yeast -0.3%.
For CCCCCCC(C)n1cc(C(C)=O)c(=O)n(C)c1=O (stereo not drawn) the results were Cruzain inh Det -2.9%, NS1 inh -0.7%, StopGo reporter inconclusive, RE007 growth inh 21.3%, Cruzain noTriton 14.8%, LASV entry inh -0.6%, SARS PLP yeast inconclusive and MARV entry inh -1.2%[46.1 µM].
Cc1cc(C(=O)NNC(=S)NCc2ccccc2)cs1 was read as Cruzain inh Det 1.7%, NS1 inh 2.3%, StopGo reporter -2.1%, RE007 growth inh 23.8%, Cruzain noTriton 1.3%, LASV entry inh 0.9%, SARS PLP yeast -17.6% and MARV entry inh -0.4%.
CN(C(=O)COC(=O)Cc1ccc(Cl)cc1)C1CCCCC1 was read as StopGo reporter 24.9%, RE007 growth inh 1.1%, LASV entry inh 3.6%, SARS PLP yeast inconclusive and MARV entry inh -15.7%.
Screening CC(C)(C)C(=O)NC(=S)NNC(=O)c1ccc(Cl)cc1Cl returned StopGo reporter -7.5%, RE007 growth inh -26.4%, LASV entry inh inconclusive, SARS PLP yeast -3.5% and MARV entry inh inconclusive.
CCC1C/C(=C/c2cccs2)C(=O)/C(=C/c2cccs2)C1 (stereo not drawn) was read as Cruzain inh Det -10.1%, NS1 inh -15.3%, StopGo reporter -22.7%, RE007 growth inh -0.9%, Cruzain noTriton inconclusive, LASV entry inh -11.7%, SARS PLP yeast -29.9% and MARV entry inh -16.8%.
CC(=O)c1ccc(NC(=O)c2nc3ccccc3nc2N2CCCCC2)cc1 was read as Cruzain inh Det -5.6%, StopGo reporter -21.7%, Cruzain noTriton 3.4% and LASV entry inh -4.5%[46.1 µM].
`O=C1NC(=O)N(CCc2ccc(F)cc2)C(=O)/C1=C/c1ccco1` gave StopGo reporter -14.0%, RE007 growth inh 22.6%, LASV entry inh -13.1%, SARS PLP yeast 5.8% and MARV entry inh 22.4%[46.1 µM].
Screening O=C(CSc1n[nH]c(-c2ccccn2)n1)Nc1ccccc1F returned NS1 inh -2.9%, StopGo reporter -1.5%, RE007 growth inh 0.6% and SARS PLP yeast -2.4%.
`COC(=O)c1cnc(N)s1` gave StopGo reporter 18.2%, RE007 growth inh -2.6%, LASV entry inh 1.9%[46.1 µM] and MARV entry inh -10.2%[46.1 µM].
For CC1CCCC(C)N1C(=O)Cn1nnc(-c2ccc([N+](=O)[O-])cc2)n1 (stereo not drawn) the results were NS1 inh 18.5%, StopGo reporter -16.9%, RE007 growth inh 9.3% and SARS PLP yeast 2.4%.
O=C(COc1ccc(Cl)cc1Cl)NC1CCSC1=O (stereo not drawn) was read as Cruzain inh Det -3.0%, NS1 inh -1.6%, StopGo reporter -17.0%, RE007 growth inh -10.0%, Cruzain noTriton -3.9%, LASV entry inh -19.3%, SARS PLP yeast 3.6% and MARV entry inh -20.9%.
Screening CCC(=O)Nc1cccc(-c2nnc(SCC(=O)c3ccccc3)n2C)c1 returned Cruzain inh Det 1.7%, NS1 inh -4.5%, StopGo reporter 19.7%, RE007 growth inh 3.0%, Cruzain noTriton 1.3%, LASV entry inh 22.1%, SARS PLP yeast 6.7% and MARV entry inh 19.3%.
Cc1ccc(NC(=O)CCN2CCCCC2)cc1 was read as NS1 inh 9.3%, StopGo reporter inconclusive, RE007 growth inh 3.0% and SARS PLP yeast 1.6%.
Screening COc1ccc(C(=O)Nn2c(C3CCC3)nc3ccccc3c2=O)c(OC)c1 returned Cruzain inh Det -7.3%, NS1 inh 2.8%, StopGo reporter 8.6%, RE007 growth inh 5.8%, Cruzain noTriton -2.4%, LASV entry inh -9.6%, SARS PLP yeast -11.4% and MARV entry inh -6.0%.

Compound activity deposited in PubChem BioAssay by National Center for Advancing Translational Sciences (NCATS).

Compounds as they come, and some 4.8% of all compounds hit somewhere here.
